Beta cell apopt: beta cell apoptosis inhibition. INS-1E cytokine-induced death, ATP luminescence, 48 h; percent of positive-control rescue, neutral wells zero. protection from apoptosis, % (test concentration not listed). actives 0.8% (n = 300,000);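 active means all replicates at 75% or more, or half of them and the mean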;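 further: 0% = cytokine-treated negative control wells and 100% = positive control rescue; higher means more ATP so stronger rescue from cytokine killing; wells of about 40 µL received 100 nL stock; the first replicate is given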
FGF22 binding: shifts melting point of recombinant human FGF22; calls only at 9.99 µM; Q9HCT0; actives 1.5% (n = 340,000); recombinant FGF22 thermal shift, SYPRO orange fluorescence; percent of sucrose octasulfate shift, DMSO zero;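 active means melting point raised past a set limit in the mean and every replicate; three in four hits are not shown here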
Target sequence (Q9HCT0 whole entry, looked up): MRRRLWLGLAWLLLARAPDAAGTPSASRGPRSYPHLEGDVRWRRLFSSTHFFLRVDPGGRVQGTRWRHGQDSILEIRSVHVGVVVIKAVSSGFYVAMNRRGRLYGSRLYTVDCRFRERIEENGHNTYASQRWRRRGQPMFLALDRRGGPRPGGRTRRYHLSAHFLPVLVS
MLL AF4-AF9 inh: blocks AF4 peptide binding to human AF9. P42568. AlphaScreen, biotin-AF4 peptide binding to FLAG-AF9. inhibition, % at 10 µM. actives 0.47% (n = 350,000);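 active means every replicate reaching a set inhibition limit, whatever the replicate mean, cut at about 25% in these data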;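 further: 0% = plate neutral control median and 100% = total signal loss; the record names both 10 and 1 µM as test concentration; the first replicate is given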
Target sequence (P42568 whole entry, looked up): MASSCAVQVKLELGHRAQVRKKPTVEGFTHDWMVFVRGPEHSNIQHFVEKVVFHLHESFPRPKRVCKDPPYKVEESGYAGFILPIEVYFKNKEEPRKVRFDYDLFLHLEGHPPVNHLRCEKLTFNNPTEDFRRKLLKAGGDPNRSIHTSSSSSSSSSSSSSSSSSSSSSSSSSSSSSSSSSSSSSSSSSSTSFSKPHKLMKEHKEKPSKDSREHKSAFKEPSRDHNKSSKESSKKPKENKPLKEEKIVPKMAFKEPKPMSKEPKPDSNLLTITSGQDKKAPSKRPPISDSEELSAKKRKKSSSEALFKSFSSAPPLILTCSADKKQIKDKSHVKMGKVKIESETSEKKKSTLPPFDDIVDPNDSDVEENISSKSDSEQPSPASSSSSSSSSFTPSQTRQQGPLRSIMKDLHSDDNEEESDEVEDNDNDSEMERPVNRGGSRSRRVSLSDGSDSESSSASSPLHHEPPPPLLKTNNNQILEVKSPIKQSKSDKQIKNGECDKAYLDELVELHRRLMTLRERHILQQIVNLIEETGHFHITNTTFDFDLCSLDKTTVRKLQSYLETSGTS
UCH37 DUB inh: inhibitors of human deubiquitinating enzyme UCH37; actives 0.33% (n = 330,000); purified proteasome/UCH37, Ub-AMC cleavage fluorescence; Q9Y5K5; inhibition, % (test concentration not listed);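 active means mean of two replicates above 20%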;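 further: 0% = compound-free wells with enzyme and 100% = wells lacking proteasome; stock transfer was 100 nL into about 20 µL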
Target sequence (Q9Y5K5 whole entry, looked up): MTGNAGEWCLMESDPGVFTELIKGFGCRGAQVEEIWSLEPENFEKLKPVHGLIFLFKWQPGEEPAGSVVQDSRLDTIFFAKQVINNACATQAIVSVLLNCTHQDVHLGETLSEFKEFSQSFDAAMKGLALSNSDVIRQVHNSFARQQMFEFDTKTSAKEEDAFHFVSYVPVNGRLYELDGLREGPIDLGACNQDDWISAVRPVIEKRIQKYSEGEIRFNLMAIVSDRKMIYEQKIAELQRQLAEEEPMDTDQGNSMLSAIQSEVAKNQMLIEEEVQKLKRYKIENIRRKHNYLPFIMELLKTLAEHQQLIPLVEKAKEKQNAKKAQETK
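Schedule: 30 min plus 25 min, room temperature / Material: human UCH37 within purified proteasomes / Technique: AMC fluorescence intensity at 355/460 nm / Buffer or medium: pH 7.4 Tris-HCl (50 mM) with ovalbumin, ATP-MgCl2, DTT / Controls: wells without proteasome as full block, compound-free enzyme plus substrate as uninhibited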
T cruzi repl: blocks replication of Trypanosoma cruzi | T. cruzi beta-gal in NIH3T3, luminescence, 90 h | inhibition, % (no concentration beside the values) | actives 1.4% (n = 300,000) | AID 1885;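 active means mean inhibition across valid replicates above about 55%, limit read from the data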;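 further: signal also drops with host cell toxicity which is not excluded here; 0% = plate median of DMSO wells and 100% = zero luminescence signal; higher percent means less beta-gal luminescence so fewer parasites; stock transfer was 50 nL into about 50 µL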
E coli growth: E. coli growth inhibition; Escherichia coli growth, OD600, 23 h; hits give low values; OD600 absorbance (no concentration beside the values); actives 0.21% (n = 330,000);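 active means OD600 absorbance below the run mean of sample wells minus 3.6 SD, in any replicate, cut at about 0.56 in these data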;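 further: stock transfer was 300 nL into about 60 µL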
A1 inh: inhibitors of the anti-apoptotic protein A1, read as caspase activation; MEF A1-2A-BIM cells, Caspase-Glo 3/7 luminescence, 3 h; percent of clofoctol response, vehicle zero; caspase activation, % (test concentration not listed); actives 0.066% (n = 330,000);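 active means over half of replicate activation scores above 10%, or exactly half above 10 with the replicate mean above 10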;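 further: wells of about 30 µL received 50 nL stock; many hits fall short of the cut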
Ecoli rRNA inh: inhibits bacterial ribosomal RNA function over humanized ribosomes. E. coli WT GFP vs humanized-ribosome RFP mutants, fluorescence, 24 h; hits give low values; DMSO median 0, no signal -100. GFP signal change (wild-type ribosome), % (test concentration not listed). actives 1.6% (n = 350,000);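 active means significant combined selectivity score with lowered wild-type GFP, culture density cut under 30%, mutant RFP and density less affected; inactive means any of these conditions unmet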; further: one replicate is shown; some compounds called inactive have numbers as strong as hits
Ecoli rRNA inh OD600: second read-out of Ecoli rRNA inh, no call of its own (marks repeat the call); OD600 change, %; measured here: OD600 growth;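 optical density of the mix in the first replicate; 0 = DMSO median and -100 = no signal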
Ecoli rRNA inh RFP: also measured in Ecoli rRNA inh; calls as there; RFP signal change, %; measured here: RFP humanized mutant strains;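 first replicate; 0 = DMSO median and -100 = no signal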
The depositor's hits bear a star; i = inactive; · = no result given; & = joins results of further samples. A portion of the library. The share of hits here may be higher or lower than overall.

SMILES	Beta cell apopt	FGF22 binding	MLL AF4-AF9 inh	UCH37 DUB inh	T cruzi repl	E coli growth	A1 inh	Ecoli rRNA inh	Ecoli rRNA inh OD600	Ecoli rRNA inh RFP
O=C(/C=C/c1ccccc1)NCCS(=O)(=O)N1CCN(c2ccccc2)CC1	-1.3	i	-8.1	0.7	2.4	0.665	-0.8	4.4	13.8	-1.2
CC(C)N(C1=CC(=O)OC12CCCCC2)C(C)C	4.2	i	3.7	3.4	6.6	0.636	0.1	7.2	-2.5	2.4
CN(CCOc1ccc(Cl)cc1)C(=O)c1ccc2c(=O)n3c(nc2c1)CCC3	-4.7	i	2.9	3.5	-15.6	0.695	0.1	3.6	9.4	-1.1
Fc1ccccc1CNc1cc(Cl)cc(Cl)c1	2.4	·	·	2.5	-5.3	0.692	0.7	·	·	·
COc1cccc(-n2nc3c(=S)[nH]nc(C)c3c2C)c1	-5.6	·	·	-0.5	-2.8	0.766	0.2	·	·	·
O=C(Nc1ccc(Cn2ccnc2)cc1)c1cccc(C(F)(F)F)c1	·	i	-3.4	4.0	38.0	0.653	0.3	-18.4	-17.7	-0.5
CC1=C(C(=O)N2CCCC(N3CCN(c4cccc(Cl)c4)CC3)C2)OCCO1 (centres undefined)	-6.3	i	-1.1	-0.3	10.1	0.705	0.6	3.9	1.8	0.3
O=C(NCc1ccc(F)cc1)C1CCC(CNS(=O)(=O)c2ccccc2)CC1 (centres undefined)	-0.7	i	1.7	5.5	-3.9	0.694	-1.0	9.6	11.2	1.5
CS(=O)(=O)N1CCN(c2ccc([N+](=O)[O-])c(NCc3cccnc3)c2)CC1	0.1	i	-0.4	13.7	11.7	0.676	-0.5	3.7	9.2	-0.2
CN1CC2(C)CN(C(c3ccccc3)c3ccccc3)CC(C)(C1)C2O (centres undefined)	2.9	·	·	4.1	·	0.818	0.3	·	·	·
O=C(Nc1ccc(F)c(Cl)c1)c1ccc2c(c1)OCO2	0.5	i	0.1	1.5	-9.0	0.633	-5.6	1.2	0.6	-3.4
OC12CCCCC1C(c1ccc3c(c1)OCO3)N(Cc1ccc(F)cc1)CC2 (centres undefined)	-6.6	·	·	29.2*	18.8	0.714	0.6	·	·	·
Cc1ccccc1Sc1ncccc1[N+](=O)[O-]	-11.3	i	-2.7	3.7	2.8	0.699	0.4	3.9	0.1	3.1
CCOC(=O)c1c(-c2ccncc2)csc1N	-9.8	·	·	2.7	26.5	0.719	-0.3	·	·	·
Cc1cccc(C2Nc3ccccc3C(=O)N2c2ccc(F)cc2)n1 (centres undefined)	-0.9	·	·	-388.6	-41.9	0.653	0.1	·	·	·
CCOC(=O)C1CCCN(C(=O)c2cc(S(=O)(=O)N3CCCCC3)ccc2Cl)C1 (centres undefined)	1.9	i	-0.2	1.5	6.5	0.704	-0.6	0.3	0.5	-1.2
CCc1ccc(OCCOCC(O)CN(CCO)CCO)cc1 (centres undefined)	4.0	·	·	4.7	-11.5	0.721	-0.4	·	·	·
COc1ccc(-c2cn(-c3ccc(C)c(C)c3)c(=S)[nH]2)cc1OC	-1.5	i	3.4	1.5	-7.0	0.649	-3.1	1.6	4.6	1.0
O=S(=O)(c1cccnc1)N1CCn2cccc2C1c1ccccc1F (centres undefined)	·	i	9.4	5.0	-5.2	0.627	0.1	-2.0	2.2	-0.8
Cc1oc2ccccc2c1-c1cn2c(n1)SCC2	-7.4	·	·	-41.5	-8.3	0.671	0.9	·	·	·
CC1(C)CC(=O)C(C2C3=C(CC(C)(C)CC3=O)Oc3c(Br)cc(Br)cc32)=C(O)C1 (centres undefined)	-4.9	i	-2.1	5.0	1.2	0.653	-0.8	7.8	7.4	-3.1
O=C(C1=C[C@H](c2ccc3c(c2)OCO3)C[C@H](OCCCCO)O1)N1CCN(Cc2ccc3c(c2)OCO3)CC1	-2.1	i	3.9	-0.3	29.5	·	-1.2	2.4	13.7	-5.1
CCCCN(Cc1nc2ccccc2c(=O)[nH]1)C(=O)c1nn(C)c(=O)c2ccccc12	·	·	-1.3	0.5	·	0.675	·	14.7	12.8	0.9
Fc1ccccc1NC(=S)NN(Cc1ccccc1)c1ccccc1	·	i	-55.5	0.4	5.5	0.703	·	3.3	-6.2	-8.3

In the list so far, three have an NH in an aromatic ring:
SMILES	Beta cell apopt	FGF22 binding	MLL AF4-AF9 inh	UCH37 DUB inh	T cruzi repl	E coli growth	A1 inh	Ecoli rRNA inh	Ecoli rRNA inh OD600	Ecoli rRNA inh RFP
COc1cccc(-n2nc3c(=S)[nH]nc(C)c3c2C)c1	-5.6	·	·	-0.5	-2.8	0.766	0.2	·	·	·
COc1ccc(-c2cn(-c3ccc(C)c(C)c3)c(=S)[nH]2)cc1OC	-1.5	i	3.4	1.5	-7.0	0.649	-3.1	1.6	4.6	1.0
CCCCN(Cc1nc2ccccc2c(=O)[nH]1)C(=O)c1nn(C)c(=O)c2ccccc12	·	·	-1.3	0.5	·	0.675	·	14.7	12.8	0.9

Going on with the list:
SMILES	Beta cell apopt	FGF22 binding	MLL AF4-AF9 inh	UCH37 DUB inh	T cruzi repl	E coli growth	A1 inh	Ecoli rRNA inh	Ecoli rRNA inh OD600	Ecoli rRNA inh RFP
O=C(Nc1cccc(CCc2ccccn2)c1)c1ccc(Cl)cc1	-2.3	·	·	3.1	-0.8	0.631	0.6	·	·	·
O=C(COC(=O)c1n[nH]c2ccccc12)c1cccc(Br)c1	-0.6	i	-1.7	-1.3	-5.8	0.662	0.1	-38.2*	-21.4*	-7.7*
CCOC(=O)c1c(-c2ccccc2)nc2ccccn12	-8.6	·	·	2.0	-6.5	0.698	-0.5	·	·	·
Cc1ccc(N(Cc2cc(=O)[nH]c3ccccc23)C(=O)C(C)C)cc1	-0.7	i	-2.6	-0.2	4.4	0.651	0.6	-12.5	-10.8	1.3
N#C/C(=C(/O)c1cccs1)c1nnc2n1CCCCC2	-3.5	i	-0.6	5.2	-18.2	0.668	-0.3	11.1	11.0	2.0
Cc1nnc(SCC(=O)N(C2CCCCC2)C2CCS(=O)(=O)C2)n1N (centres undefined)	-0.8	i	0.1	1.9	-11.0	0.613	0.0	15.9	16.5	2.2
COc1ccccc1-c1nnc(-c2ccc(C)cc2)o1	·	i	-4.0	0.8	-9.4	0.653	-2.3	-23.1	-27.0	-4.7
CC1(C)Cc2ccccc2-c2nnnn21	-0.7	·	-42.4	1.2	-9.3	0.687	0.4	0.4	0.7	-0.1
O=C(NCc1ccccc1)C1=C[C@@H](c2csc3ccccc23)C[C@@H](OCc2ccc(CO)cc2)O1	123.0*	i	0.9&-8.6	3.9	38.6	·	0.6	10.5	9.0	-0.1
O=S1(=O)c2ccc(Br)cc2OC(COCc2ccccc2)CN1Cc1ccccc1 (centres undefined)	·	i	-5.2	4.6	·	0.715	·	9.7	0.6	1.9
COc1cccc(/C=C/c2ccc3ccccc3n2)c1OC(C)=O	4.6	i	18.7	-2.9	-29.7	·	-7.7	-41.8	-56.8	-1.6
CCN1CCCC1CNC(=O)c1cc2c(-c3cccc(OC)c3)nn(C)c2s1 (centres undefined)	3.5	·	·	-75.9	40.5	0.748	0.6	·	·	·
CCn1c(C(=O)N2CCC(C(=O)N3CCN(c4ccccn4)CC3)CC2)cc2sccc21	9.1	i	-4.9	2.4	-10.2	0.761	-0.5	1.7	7.8	-2.3
CC1CCCN(C(=O)c2cc3c(=O)n4ccccc4nc3s2)C1 (centres undefined)	-10.3	i	-5.2	i	4.8	0.697	0.5	-5.2	-1.1	7.5
CCN(CC(=O)Nc1ccccc1OC)C(=O)CCc1ccccc1	-2.7	i	2.3	4.8	5.9	0.694	0.6	3.4	7.6	0.3
COc1ccccc1C(OC(=O)c1cccs1)C(=O)NCc1ccco1 (centres undefined)	-6.9	·	·	5.8	-18.9	0.71	-0.4	·	·	·
CC(Sc1ncc(C(F)(F)F)cc1Cl)C(=O)NC(N)=O (centres undefined)	6.8	i	-1.1	0.2	2.2	0.728	0.7	7.8	-2.1	-0.3
COc1cccc(NC(=O)CN(C)C(=O)c2ccc3c(c2)CC(c2ccccc2)OC3=O)c1 (centres undefined)	2.4	i	0.7	0.9	·	0.644	0.4	-1.8	-14.0	0.4
Cc1ccc(C(=O)NCC(=O)N2CCCCCCC2)cc1	-1.1	i	7.3	1.0	·	0.703	0.6	·	·	·
O=C(COc1ccc(/C=N/NS(=O)(=O)c2ccccc2)cc1)N1CCOCC1	-3.6	i	-0.9	·	-8.1	·	0.7	9.7	10.3	-3.4
Cc1cc(C(=O)Nc2ccc3c(c2)CCC3)ccc1[N+](=O)[O-]	3.8	i	0.7	2.1	14.4	0.643	-0.9	10.3	6.1	0.4
Cc1cccc(C)c1OCc1cc(C(=O)N2CCCC2c2nonc2C)no1 (centres undefined)	-1.6	·	-3.1	1.1	19.7	0.642	-0.2	-17.8	-35.3	-2.6
Cn1c(SCC(=O)NC2CCS(=O)(=O)C2)nnc1-c1ccco1 (centres undefined)	-1.4	i	0.0	2.7	·	0.729	-0.1	24.3	10.5	3.7
COc1ccc(Cl)cc1C(=O)Nc1nc2ccc(S(C)(=O)=O)cc2s1	0.7	·	·	-39.5	-0.2	0.732	-0.8	·	·	·
N#C/C(=C\c1ccc[nH]1)C(=O)N1CCCCC1	-8.1	i	-0.8	16.9	-2.8	0.616	0.3	2.2	-3.1	-0.2
COC(=O)c1cc2ccsc2n1CC(=O)N(C)c1ccccc1	·	·	·	1.6	-2.6	0.713	0.1	·	·	·
O=C(Nc1cccnc1)c1cc(-c2cccc(Br)c2)nc2ccccc12	12.3	i	2.9	1.0	5.0	0.732	-0.3	-5.9	-13.4	14.4
CCOC(=O)CN1CC23C=CC(O2)C(C(=O)NC2CCCCC2)C3C1=O (centres undefined)	6.6	·	·	3.5	2.0	0.705	-0.8	·	·	·
CC(C)Cn1c(SCC(=O)N2CCN(S(=O)(=O)c3ccccc3)CC2)nc2ccccc21	7.6	·	·	2.6	16.6	0.693	-0.4	-31.9*	-18.9*	1.7*
CC1CCC(NC(=O)CC(NC(N)=O)c2ccccc2Cl)CC1 (centres undefined)	-5.1	i	0.1	1.9	-5.4	0.701	-0.3	-1.5	1.4	-2.8
Cc1cc(NC(=O)CCC(=O)N(CC(=O)NC2CCCC2)c2ccc(Cl)c(Cl)c2)no1	2.0	i	0.6	-0.8	20.2	0.68	0.3	8.8	10.3	-0.2
COc1ccc(CC(=O)N2CCN(S(=O)(=O)c3ccc(Cl)s3)CC2)cc1	-9.3	i	2.4	0.1	·	0.706	-0.1	-6.2	-8.2	-0.2
O=c1c2ccccc2nnn1Cc1ccc(Br)cc1	-6.9	i	5.5	0.4	9.2	0.697	-1.0	15.3	9.3	5.7
CCOc1cc(NC(=S)NCCCOC)c(OCC)cc1NC(=O)c1cccs1	3.1	·	·	0.5	1.7	0.705	0.2	·	·	·
CCC(C)(C)NC(=O)c1ccccc1Oc1ccccc1	·	i	0.3	0.9	8.3	0.664	0.6	-25.5	-36.8	-9.6
CCSc1ccccc1C(=O)N1CCN(c2ccc([N+](=O)[O-])cc2)CC1	-0.3	i	2.4	10.3	-10.6	0.632	-0.7	-24.8	-30.1	-1.4
COc1ccccc1NC(=O)C1=C(C)NC(SCC(=O)Nc2ccc(C(=O)O)cc2)=C(C#N)C1c1cccs1 (centres undefined)	-3.6	i	-2.0	2.8	4.9	0.721	0.0	-9.9	-4.6	6.5

Screening data (PubChem BioAssay)
